# STAT3 binder – binders of human STAT3; P40763; Small molecule microarray, His-STAT3 binding, anti-His fluorescence; calls only; actives 0.2% (n = 17,000); AID 624138;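 active = compounds whose four printed spots each show fluorescence over background unusually high for their array block, chance value under 7%; compounds were printed on slides so no solution concentration is given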;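 note: about 2 pmol printed per array spot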
# Target sequence (P40763 whole entry, looked up): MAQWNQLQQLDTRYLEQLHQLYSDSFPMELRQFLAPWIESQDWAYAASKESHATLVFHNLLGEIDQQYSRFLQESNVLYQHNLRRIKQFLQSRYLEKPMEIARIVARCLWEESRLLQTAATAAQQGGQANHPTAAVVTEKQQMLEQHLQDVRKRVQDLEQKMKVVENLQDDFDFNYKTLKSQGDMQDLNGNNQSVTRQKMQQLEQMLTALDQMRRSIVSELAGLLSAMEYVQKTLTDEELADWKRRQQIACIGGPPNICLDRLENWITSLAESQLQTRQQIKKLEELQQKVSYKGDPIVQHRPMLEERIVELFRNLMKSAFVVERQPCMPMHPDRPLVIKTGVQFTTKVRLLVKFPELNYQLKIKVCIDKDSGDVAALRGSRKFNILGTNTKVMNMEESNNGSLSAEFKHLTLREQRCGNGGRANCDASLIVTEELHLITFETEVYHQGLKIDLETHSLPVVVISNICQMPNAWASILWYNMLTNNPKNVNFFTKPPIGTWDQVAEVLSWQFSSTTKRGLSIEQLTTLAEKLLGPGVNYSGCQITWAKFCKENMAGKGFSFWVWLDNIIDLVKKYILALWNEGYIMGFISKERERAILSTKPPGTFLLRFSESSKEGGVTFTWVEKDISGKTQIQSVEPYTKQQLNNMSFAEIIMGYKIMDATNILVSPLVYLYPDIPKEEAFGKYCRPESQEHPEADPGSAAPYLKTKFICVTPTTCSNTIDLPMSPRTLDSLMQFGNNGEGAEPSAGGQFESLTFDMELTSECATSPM
# p53 mut binder – binds human mutant p53 on microarray | AID 624136 | calls only | actives 0.4% (n = 17,000) | small molecule microarray binding, anti-GST fluorescence;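 active = compounds whose four printed spots each glow above background more than chance allows, each with a p-value under 7%; compounds were printed on slides so no solution concentration is given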;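 note: about 2 pmol printed per array spot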
# Myc binder – binders of human c-Myc; actives 1.5% (n = 17,000); small molecule microarray, His-c-Myc binding, anti-His fluorescence; calls only; P01106;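 active = spot fluorescence over background with P-value below 7% in all four replicate spots, showing protein binding; compounds were printed on slides so no solution concentration is given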;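 note: score is binary with 100 for all four spots passing and 0 otherwise; about 2 pmol printed per array spot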
# ID4 binder – binds human ID4 protein on microarray. small molecule microarray, Flag-ID4 binding, fluorescence F/B. calls only. actives 1.2% (n = 31,000);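 active = spot signal over background at p below 0.07 in all four prints; compounds were printed on slides so no solution concentration is given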;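 note: a binder raises fluorescence above local background on the spot; about 2 pmol printed per array spot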
# Target sequence (P47928 whole entry, looked up): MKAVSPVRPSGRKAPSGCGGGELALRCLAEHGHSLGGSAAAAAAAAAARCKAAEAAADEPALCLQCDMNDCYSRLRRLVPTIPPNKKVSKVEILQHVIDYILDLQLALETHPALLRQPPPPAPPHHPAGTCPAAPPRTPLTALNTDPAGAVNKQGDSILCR
# Calls only; i = inactive; . = not tested or not shown; + = active, no number.
canonical_smiles	STAT3 binder	p53 mut binder	Myc binder	ID4 binder
C[C@@H]1CN([C@H](C)CO)C(=O)Cc2cc(NC(=O)NC3CCCCC3)ccc2O[C@@H]1CN(C)Cc1ccccc1	i	i	i	i
CCc1c(O)nc(SC(C)C(=O)Nc2cccc(Cl)c2)[nH]c1=O (stereo not drawn)	i	i	i	i
CCCCCCCC/C=C/CCCCCCCC(=O)NCCc1ccc(O)c(O)c1	i	i	i	i
COC(=O)C1=C(C)NC(=O)NC1c1ccccc1OCC(=O)Nc1ccc(C)cc1 (stereo not drawn)	i	i	i	i
C[C@H](CO)N1C[C@H](C)[C@H](CN(C)S(=O)(=O)c2cn(C)cn2)Oc2ccc(NC(=O)Cc3ccccc3)cc2CC1=O	i	i	i	i
CCC(C)(C)N=C(NC#N)Nc1cccnc1	i	i	i	i
C[C@@H]1CCCCO[C@@H](CN(C)S(=O)(=O)c2cn(C)cn2)[C@H](C)CN([C@H](C)CO)C(=O)c2cc(NC(=O)c3ccccc3)ccc2O1	i	i	i	i
Cc1nn(C(C)C(=O)NCC2CCCO2)c(C)c1[N+](=O)[O-] (stereo not drawn)	i	i	i	i
CCCCCCCCC[C@@H](O)CC(=O)CCc1ccc(O)c(OC)c1	i	i	i	i
O=C(O)c1c(O)cc(OC2OC(CO)C(O)C(O)C2O)cc1/C=C/c1ccccc1 (stereo not drawn)	i	i	i	i
COc1ccc(S(=O)(=O)N(C)C[C@H]2Oc3ccc(NC(=O)Cc4ccccc4)cc3C(=O)N([C@H](C)CO)C[C@H]2C)cc1	i	i	i	i
C[C@@H]1CN([C@@H](C)CO)C(=O)c2cc(NC(=O)C3CC3)ccc2O[C@@H]1CN(C)Cc1ccncc1	i	i	i	i
CC1=C(/C=C/C(C)=C\C=C\C(C)=C\C(=O)Nc2ccc(O)cc2)C(C)(C)CCC1	i	i	i	.
Cc1noc(C)c1NC(=O)N(C)C[C@@H]1Oc2c(NC(=O)C3CCOCC3)cccc2C(=O)N([C@H](C)CO)C[C@@H]1C	i	i	i	i
Cc1cc(C(=O)Nc2cccc3c2O[C@@H](CN(C)Cc2ccc(C(F)(F)F)cc2)[C@H](C)CN([C@@H](C)CO)C3=O)n(C)n1	i	i	i	i
C[C@@H]1CN([C@H](C)CO)C(=O)c2cc(NS(=O)(=O)c3ccccc3)ccc2O[C@@H](C)CCCCO[C@@H]1CN(C)C(=O)C1CCCCC1	i	i	i	i
COc1cc(NC(=O)CCC(=O)O)ccc1NC(C)=O	i	i	i	i
C[C@H](CO)N1C[C@H](C)[C@H](CN(C)C(=O)NC2CCCCC2)Oc2ccc(NC(=O)c3ccncc3)cc2C1=O	i	i	i	i
Cc1ccc(S(=O)(=O)N(C)C[C@H]2OCc3cn(nn3)CCCC(=O)N([C@H](C)CO)C[C@@H]2C)cc1	i	i	i	.
COc1cc2nccc(Oc3ccc(NC(=O)Nc4ccc(F)cc4F)c(F)c3)c2cc1OC	i	i	i	+
C[C@@H]1CN([C@H](C)CO)C(=O)c2cccc(NC(=O)Nc3cccc4ccccc34)c2O[C@H]1CN(C)S(=O)(=O)c1ccc(Cl)cc1	i	i	i	i
C[C@@H]1CCCCO[C@@H](CN(C)S(=O)(=O)c2ccc(F)cc2)[C@@H](C)CN([C@@H](C)CO)C(=O)c2cc(NC(=O)c3ccncc3)ccc2O1	i	i	i	i
C[C@H](CO)N1C[C@H](C)[C@@H](CN(C)C(=O)Nc2ccc(F)cc2)Oc2ccc(NS(=O)(=O)c3cccs3)cc2C1=O	i	i	i	i
C[C@H](CO)N1C[C@H](C)[C@H](CN(C)S(=O)(=O)c2cn(C)cn2)OCCCC[C@H](C)Oc2ccc(N(C)C)cc2C1=O	i	i	i	i
C[C@H]1CN([C@@H](C)CO)C(=O)c2cc(NC(=O)Nc3ccc(F)cc3)ccc2O[C@@H]1CN(C)S(=O)(=O)c1cn(C)cn1	i	i	i	i
C[C@@H]1CN([C@H](C)CO)C(=O)Cc2cc(NS(=O)(=O)c3ccccc3)ccc2O[C@H]1CN(C)Cc1ccc2c(c1)OCO2	i	i	i	i
C[C@H]1CN([C@@H](C)CO)C(=O)CCCn2cc(nn2)CO[C@H]1CN(C)C(=O)OCc1ccccc1	i	i	i	i
Cc1noc(C)c1S(=O)(=O)N(C)C[C@@H]1OCCCC[C@H](C)Oc2ccc(NC(=O)C3CCCCC3)cc2C(=O)N([C@@H](C)CO)C[C@@H]1C	i	i	i	i
COC1=CC(C)c2c(c(OC)c3occ(C)c3c2C)C1=O (stereo not drawn)	i	i	i	i
COc1ccc(S(=O)(=O)Nc2ccc3c(c2)C(=O)N([C@@H](C)CO)C[C@H](C)[C@@H](CN(C)S(=O)(=O)c2ccccc2)OCCCC[C@@H](C)O3)cc1	i	i	i	.
CC(=O)c1ccc(OC(=O)C(Cc2ccccc2)N2C(=O)C3C4C=CC(C5CC45)C3C2=O)cc1 (stereo not drawn)	i	i	i	i
CNC[C@@H]1OCCCC[C@H](C)Oc2ccc(NS(=O)(=O)c3cccs3)cc2C(=O)N([C@@H](C)CO)C[C@@H]1C	i	i	i	i
Cc1ccc(C(O)(COC(=O)C(C)C)COC(=O)C(C)C)c(O)c1	i	i	i	i
C[C@@H]1CCCCO[C@@H](CN(C)Cc2ccc(C(F)(F)F)cc2)[C@@H](C)CN([C@@H](C)CO)C(=O)c2cc(NS(C)(=O)=O)ccc2O1	i	i	i	i
COc1ccc(OC)c(NC(=O)CSc2nncc3ccccc23)c1	i	i	i	i
O=C(CSc1nc2ccccc2c(=O)n1Cc1ccco1)c1ccc(Br)cc1	i	i	i	i
COc1ccc(NC(=O)N(C)C[C@H]2Oc3ccc(NS(=O)(=O)c4ccccc4)cc3C(=O)N([C@H](C)CO)C[C@@H]2C)cc1	i	i	i	i
C[C@H](CO)N1C[C@H](C)[C@H](CN(C)S(=O)(=O)c2ccccc2)Oc2ccc(NS(=O)(=O)c3cccs3)cc2C1=O	i	i	i	.
COc1ccc2[nH]c(I)c(CCNC(C)=O)c2c1	i	i	i	i
C[C@@H]1CCCCO[C@H](CN(C)C(=O)Nc2ccc3c(c2)OCO3)[C@@H](C)CN([C@@H](C)CO)C(=O)c2cc(NC(=O)CCC(F)(F)F)ccc2O1	i	i	i	.
Cc1noc(C)c1S(=O)(=O)N(C)C[C@H]1OCc2cnnn2CCCC(=O)N([C@H](C)CO)C[C@@H]1C	i	i	i	i
C[C@H](CO)N1C[C@H](C)[C@H](CN(C)C)Oc2c(NS(C)(=O)=O)cccc2C1=O	i	i	i	i
Cc1ccccc1NC(=O)c1ccc(C)c(S(=O)(=O)Nc2cc([N+](=O)[O-])ccc2C)c1	i	i	i	+
COc1ccc(S(=O)(=O)N(C)C[C@@H]2Oc3c(NC(=O)Nc4c(C)noc4C)cccc3C(=O)N([C@H](C)CO)C[C@H]2C)cc1	i	i	i	i
COC(=O)CNc1nc(OC)nc(N(C)C)n1	i	i	i	i
O=[N+]([O-])c1cc(C(F)(F)F)ccc1Sc1nnc(CCCO)n1-c1ccccc1	i	i	i	i
C[C@@H]1CN([C@@H](C)CO)C(=O)c2cccc(NC(=O)c3ccncc3)c2O[C@H]1CN(C)C(=O)Nc1ccc(C(F)(F)F)cc1	i	i	i	i
C[C@@H]1CCCCO[C@H](CN(C)Cc2ccncc2)[C@H](C)CN([C@@H](C)CO)C(=O)c2cc(NC(=O)Nc3ccccc3)ccc2O1	i	i	i	i
C[C@@H]1CN([C@@H](C)CO)C(=O)Cc2cc(N(C)C)ccc2O[C@H]1CN(C)Cc1ccncc1	i	i	i	i
CC(C)NC(=O)N(C)C[C@@H]1OCCCC[C@@H](C)Oc2ccc(NC(=O)CCCN(C)C)cc2C(=O)N([C@H](C)CO)C[C@@H]1C	i	i	i	i
Cc1ccc(S(=O)(=O)N(C)CC(=O)Nc2ncc(C(F)(F)F)cc2Cl)cc1	i	i	i	i
C[C@H](CO)N1C[C@H](C)[C@@H](CN(C)C(=O)Nc2ccc(C(F)(F)F)cc2)Oc2c(NS(=O)(=O)c3cn(C)cn3)cccc2C1=O	i	i	i	i
Cc1nn(Cc2cccc(C(=O)Nc3ccccc3F)c2)c(C)c1Cl	i	i	i	i
CC(=O)N[C@@H](CSC/C=C(\C)CC/C=C(\C)CC/C=C(\C)CCC=C(C)C)C(=O)O	i	i	i	i
CCOc1ccccc1NC(=O)CN1C(=O)C(=O)c2ccccc21	i	i	i	i
COc1ccc(-n2c(/C=C/N(C)C)c([N+](=O)[O-])c3ccc(OC(C)=O)c(COC(C)=O)c32)cc1	i	i	i	i
CC(C)NC(=O)Nc1ccc2c(c1)CC(=O)N([C@@H](C)CO)C[C@H](C)[C@@H](CN(C)C(=O)NC1CCCCC1)O2	i	i	i	.
C[C@@H]1CCCCO[C@H](CN(C)C(=O)Cc2ccccc2)[C@H](C)CN([C@H](C)CO)C(=O)c2cc(NC(=O)c3ccncc3)ccc2O1	i	i	i	i
C[C@@H]1CN([C@H](C)CO)C(=O)c2cc(NS(=O)(=O)c3ccccc3)ccc2O[C@@H](C)CCCCO[C@@H]1CN(C)Cc1ccc2c(c1)OCO2	i	i	i	i
CC#CC(=O)Nc1ccc2ncnc(Nc3cccc(Br)c3)c2c1	i	i	i	.

# By substructure, the entries above containing a thiophene ring, fused or not.
canonical_smiles	STAT3 binder	p53 mut binder	Myc binder	ID4 binder
C[C@H](CO)N1C[C@H](C)[C@@H](CN(C)C(=O)Nc2ccc(F)cc2)Oc2ccc(NS(=O)(=O)c3cccs3)cc2C1=O	i	i	i	i
CNC[C@@H]1OCCCC[C@H](C)Oc2ccc(NS(=O)(=O)c3cccs3)cc2C(=O)N([C@@H](C)CO)C[C@@H]1C	i	i	i	i
C[C@H](CO)N1C[C@H](C)[C@H](CN(C)S(=O)(=O)c2ccccc2)Oc2ccc(NS(=O)(=O)c3cccs3)cc2C1=O	i	i	i	.

# Of the compounds above, two contain bromine.
canonical_smiles	STAT3 binder	p53 mut binder	Myc binder	ID4 binder
O=C(CSc1nc2ccccc2c(=O)n1Cc1ccco1)c1ccc(Br)cc1	i	i	i	i
CC#CC(=O)Nc1ccc2ncnc(Nc3cccc(Br)c3)c2c1	i	i	i	.

# (more compounds)
canonical_smiles	STAT3 binder	p53 mut binder	Myc binder	ID4 binder
C[C@H](CO)N1C[C@H](C)[C@H](CN(C)S(=O)(=O)c2cccs2)Oc2ccc(NC(=O)Cc3cn(C)c4ccccc34)cc2CC1=O	i	i	i	i
Cc1noc(C)c1S(=O)(=O)N(C)C[C@@H]1Oc2ccc(NS(=O)(=O)c3cn(C)cn3)cc2CC(=O)N([C@@H](C)CO)C[C@H]1C	i	i	i	i
COc1ccccc1S(=O)(=O)N(C)C[C@H]1OCc2cn(nn2)CCCC(=O)N([C@H](C)CO)C[C@@H]1C	i	i	i	i
CC(=O)Nc1ccc(S(=O)(=O)Nc2cccc(-c3cn4ccc(C)cc4n3)c2)cc1	i	i	i	i
CC(=O)c1ccc(NC(=O)CSc2nc3cc(C)c(C)cc3[nH]2)cc1	i	i	i	i
CC(C)CC(NC(=O)N1CCCCCC1)C(=O)NC(Cc1cn(C)c2ccccc12)C(=O)NC(Cc1ccccn1)C(=O)O (stereo not drawn)	i	i	i	i
Cc1noc(C)c1NC(=O)Nc1ccc2c(c1)C(=O)N([C@@H](C)CO)C[C@H](C)[C@H](CN(C)Cc1ccncc1)OCCCC[C@H](C)O2	i	i	i	i
COc1cccc(OC)c1-c1cc(C(=O)NC2(C(=O)O)C3CC4CC(C3)CC2C4)nn1-c1ccc(C(=O)N(C)CCCN(C)C)cc1C(C)C (stereo not drawn)	i	i	i	i
COc1ccc(C(=O)NC(CC(C)C)C(=O)O)cc1 (stereo not drawn)	i	i	i	i
CCc1c(C)sc(NC(=O)C2CC(c3cc(Cl)c(OC)cc3OC)=NO2)c1C#N (stereo not drawn)	i	i	i	i
C[C@@H]1CCCCO[C@@H](CN(C)Cc2ccc(C(=O)O)cc2)[C@@H](C)CN([C@@H](C)CO)C(=O)c2cc(NC(=O)Nc3ccc(F)cc3)ccc2O1	i	i	i	i
COc1ccc(C(=O)c2oc3ccccc3c2NC(=O)COc2ccc(C)cc2)cc1	i	i	i	i
COc1cc2nc3occc3c(OC)c2cc1OCC(OC(C)=O)C(C)(C)OC(C)=O (stereo not drawn)	i	i	i	i
CC(C)(O)CCC(=O)C(C)(O)C1C(O)CC2(C)C3CC=C4C(CC(OC5OC(CO)C(O)C(O)C5O)C(O)C4(C)C)C3(C)CCC12C (stereo not drawn)	i	i	i	i
C[C@H](CO)N1C[C@H](C)[C@H](CN(C)S(=O)(=O)c2cn(C)cn2)OCCCC[C@H](C)Oc2ccc(NC(=O)Cc3ccccc3)cc2C1=O	i	i	i	i
C[C@H]1CN([C@@H](C)CO)C(=O)c2cccc(NS(=O)(=O)c3ccccc3)c2O[C@H]1CN(C)C(=O)NC1CCCCC1	i	i	i	i
COc1ccc(S(=O)(=O)N(C)C[C@H]2OCCCC[C@@H](C)Oc3ccc(NC(=O)CCC(F)(F)F)cc3C(=O)N([C@@H](C)CO)C[C@H]2C)cc1	i	i	i	.
O=C(CCC1COc2ccccc2O1)Nc1ncc(C(F)(F)F)cc1Cl (stereo not drawn)	i	i	i	i

# Source: PubChem BioAssay

# Not all compounds are listed, so the mix of outcomes need not match the whole.
